Bioassay records (PubChem)
TRPV1 potentiator: human TRPV1 potentiation; Q8NER1; TRPV1-expressing cells, Fluo-8 calcium influx, capsaicin EC20 potentiation; host cell line not named in the record; control for the full effect not named in the record; potentiation, % at 8.33 µM; actives 0.02% (n = 320,000); AID 540277; active means potentiation above 80%; inconclusive means 30% to 80%; inactive means below 30%; also: 0% is about no effect
Target sequence (Q8NER1 whole entry, looked up): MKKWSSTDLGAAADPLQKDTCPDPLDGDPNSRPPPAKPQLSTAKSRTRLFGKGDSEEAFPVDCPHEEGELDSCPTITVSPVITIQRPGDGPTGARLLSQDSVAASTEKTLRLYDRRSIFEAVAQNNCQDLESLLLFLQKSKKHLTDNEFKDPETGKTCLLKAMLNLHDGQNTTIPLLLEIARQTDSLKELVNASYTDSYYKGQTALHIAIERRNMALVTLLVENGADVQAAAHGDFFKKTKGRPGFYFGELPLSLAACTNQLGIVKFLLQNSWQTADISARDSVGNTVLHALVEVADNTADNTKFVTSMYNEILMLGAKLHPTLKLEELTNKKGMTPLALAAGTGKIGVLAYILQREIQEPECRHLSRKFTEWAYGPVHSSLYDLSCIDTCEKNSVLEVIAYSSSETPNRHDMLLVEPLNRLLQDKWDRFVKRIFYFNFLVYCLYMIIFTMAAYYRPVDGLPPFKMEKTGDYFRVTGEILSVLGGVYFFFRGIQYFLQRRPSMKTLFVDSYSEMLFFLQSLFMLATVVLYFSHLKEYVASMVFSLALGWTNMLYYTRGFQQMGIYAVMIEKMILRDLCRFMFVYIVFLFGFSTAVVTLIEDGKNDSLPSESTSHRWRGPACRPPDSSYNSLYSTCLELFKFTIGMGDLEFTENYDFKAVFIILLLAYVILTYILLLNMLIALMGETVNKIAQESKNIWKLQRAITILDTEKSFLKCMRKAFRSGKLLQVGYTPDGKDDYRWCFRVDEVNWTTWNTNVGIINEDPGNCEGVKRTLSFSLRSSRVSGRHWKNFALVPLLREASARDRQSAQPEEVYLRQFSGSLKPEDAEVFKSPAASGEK
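TRPV1-expressing cells were cultured overnight at 35.5C and loaded with Fluo-8 calcium dye for 40 to 90 min at room temperature. After a 10 s baseline, compound was added and calcium influx was read kinetically for 3 min (ex 480/em 520 nm).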
ClpP mod: qHTS Assay for Activators of ClpP. ATP-dependent Clp protease proteolytic subunit (Bacillus subtilis (strain 168)), P80244. purified B. subtilis ClpP, FRET peptide cleavage, 20 min. Potency, µM (doses to about 57.5 µM), for the others: at the top dose activity change, negative = active. actives 1.9% (n = 340,000); active = well fitted falling curve with a large enough effect; inconclusive = small, poorly fitted or top-dose-only effect; inactive = no such curve, though single readings can be large or run the other way; also: potency is read from the fitted curve at half-maximal effect; the source files actives as falling curves though it sought activators and does not explain the sign; nearly all actives have a fitted effect of over 65% in size; many hits overshoot -100%
Target sequence (P80244 whole entry, looked up): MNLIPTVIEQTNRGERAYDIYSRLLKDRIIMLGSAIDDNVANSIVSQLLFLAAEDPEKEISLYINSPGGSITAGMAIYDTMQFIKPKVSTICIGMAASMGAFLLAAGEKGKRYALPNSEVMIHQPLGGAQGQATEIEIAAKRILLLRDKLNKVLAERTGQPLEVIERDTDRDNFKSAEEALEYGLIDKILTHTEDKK
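Purified B. subtilis ClpP, 10 microg/mL final in Tris/HCl pH8 with KCl, BSA, glycerol and Tween-20, cleaved an Abz/nitrotyrosine-quenched decapeptide. Fluorescence (ex 320, em 430) was read at 0 and 20 min at room temperature. Delta was normalized to 5.8 microM ADEP and DMSO/no-enzyme controls.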
gsp antagonist: antagonizes gsp, the McCune-Albright syndrome mutation; gsp-mutant cells, cAMP HTRF, 30 min; control for the full effect not named in the record; Potency, µM (series often up to 76.9 µM), for inactives: at the highest dose activity change, negative = inhibition, most hits filed as inhibitors; actives 0.4% (n = 340,000); AID 624288; active = falling curve of any shape with a large fitted effect; inconclusive = falling curve, mostly with a smaller effect; inactive = flat or rising curve; cell line not stated here;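 also: intracellular cAMP measured with PDE inhibitor Ro 20-1724 present during compound exposure; potency is read from the fitted curve at half-maximal effect; % is scaled to controls: 0 for no effect and ±100 for the full control effect; nearly all actives have a fitted effect of over 65% in size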
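Cells, 2000/well, grown 16–24 h in DMEM 10% FBS with 0.5 mg/ml G418, then compounds plus […] (300 uM addition stock), 30 min at 37C. cAMP read by HTRF (cAMP-d2 and anti-cAMP antibody-K in lysis buffer) after 30 min RT.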
gsp ag: activates gsp, the McCune-Albright syndrome mutation. AID 624287. actives 0.13% (n = 340,000). Potency, µM (series often up to 76.9 µM), for inactives: top-dose activation (cAMP increase), hits mostly activators. gsp mutant cells, cAMP HTRF, 30 min; control for the full effect not named in the record; active = well fitted activation curve with a large enough effect; inconclusive = small, poorly fitted or top-dose-only effect, or another doubt; inactive = no such curve, though single readings can be large or run the other way; cell line not stated here;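 also: phosphodiesterase inhibitor Ro 20-1724 added with compounds to block cAMP breakdown; potency is read from the fitted curve at half-maximal effect; nearly all actives have a fitted effect of over 60% in size; about a fifth of the inactives were tested at one dose only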
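Cells stably selected in G418 were plated at 2000/well, grown 16-24 hr, then given compounds in DMSO with the PDE inhibitor […] (300 uM solution added) for 30 min at 37C; cAMP was read by HTRF.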
CtBP-E1A blk: blocks the CtBP interaction with E1A | AlphaScreen GST-E1A/His-CtBP binding, 1536-well; stronger effect = lower value; control for the full effect not named in the record | activity change, % (no concentration beside the values) | actives 0.49% (n = 340,000) | AID 651724; in the data active means activity change below about -65%; inconclusive means about -30% to -65%; inactive means above about -30%; also: % is scaled to controls: 0 for no effect and ±100 for the full control effect; compound concentration not given in the record
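AlphaScreen with 125 nM GST-E1A and 125 nM His-CtBP (5X stocks) in Tris pH 8.0, 300 mM NaCl, BSA, Tween 20, TCEP. Compounds preincubated 2 h at 37 deg C, then glutathione donor/nickel acceptor beads added for 1 h at 37 deg C in dark.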
Sfp inh: blocks B. subtilis Sfp PPTase activity; Potency, µM, for the others: max response, negative = inhibition, usual class: inhibitors; AID 1490; Biochemical Sfp PPTase activity, qHTS; actives 3.5% (n = 310,000); Q9F4F7; active = well fitted inhibition curve with a large enough effect; inconclusive = small, poorly fitted or top-dose-only effect, or another doubt; inactive = no such curve, though single readings can be large or run the other way;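 also: the enzyme is Sfp with the accession as filed and its product quenches rhodamine fluorescence; potency is read from the fitted curve at half-maximal effect; 0% = enzyme reaction without inhibitor and -100% = no enzyme wells; top concentration of the series not given in the record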
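Sfp 15 nM + cpd, 15 min RT; start w/ rhodamine-CoA 5 uM, BHQ-2-YbbR 12.5 uM (final); 50 mM Hepes pH 7.6, 10 mM MgCl2, 0.01% NP-40, 0.01% BSA; read 525/598 nm at 0 and 30 min.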
Menin-MLL FL inh: menin-MLL binding inhibition, fluorescein peptide; 290,000 tested, under 10 active; Fluorescence polarization, fluorescein-MLL peptide displacement from menin; FP activity change, % at 61.4 µM; AID 1766; inconclusive = falling polarisation curve, or a change in total fluorescence; inactive = total fluorescence flat and polarisation flat or rising; no compound was filed as active; the % refers to the polarisation; negative = inhibition;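 also: % of control where 0% means no effect; inhibitors lower the polarisation; unlabelled MLL peptide was the positive control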
* marks the source's active call; other numbers are inactive results; ? = inconclusive; · = not tested or not shown; [ ] = dose if it differs, or a comment.

SMILES,TRPV1 potentiator,ClpP mod,gsp antagonist,gsp ag,CtBP-E1A blk,Sfp inh,Menin-MLL FL inh
C/C(=C\C1CCCCC1)C(NC(=O)c1ccc(C(F)(F)F)cc1)c1ccc(-c2ccccc2)cc1 (stereo not given),·,-2.4%,1.3%,·,-10.2,12.3%,3.6
COc1ccccc1CNC(=O)COC(=O)CCN1C(=O)C2CC=CCC2C1=O (stereo not given),·,-0.8%,·,-56.0%[inhibitor],4.2,·,·
CCOc1ccc(N(CCC#N)S(=O)(=O)c2ccc(OC)cc2)cc1,-8.1,-0.5%,0.4%,5.4%,6.0,14.1%,-2.3
CN(C)CCCN(C(=O)c1nc2ccccc2s1)c1nc2ccc(F)cc2s1,·,·,12.7%,-5.8%[15.4 µM],-0.2,·,·
O=C(Nc1ccc2c(c1)OCO2)C1CC1,2.5,-4.5%,5.3%,-6.2%,-9.2,·,·
Cc1cc(NCC(c2ccccc2)c2ccccc2)n2ncnc2n1,23.8,1.0%,-23.9%,-5.9%,0.8,-11.0%,-0.5
CCOC(=O)C1CCCN(C(=O)c2ccc3[nH]c4c(c3c2)CC(C)CC4)C1 (stereo not given),-14.3,-14.4%,-9.6%,1.6%,-14.8,·,·
O=C(c1ccc(-n2cncn2)c([N+](=O)[O-])c1)N1CCN(S(=O)(=O)c2ccc(F)c(F)c2)CC1,7.0,0.8%,6.2%,5.4%,16.3,·,·
O=C(c1cccnc1)N1CCCc2ccccc21,-17.2,-0.5%,7.4%,-2.2%,6.9,15.9%,-0.1
CCn1nc(C(=O)Nc2cc(Cl)ccc2-n2cncn2)c2ccccc2c1=O,22.9,1.0%,-9.8%,-15.6%,5.4,·,·
Cc1ccc(NC(=O)NNC(=O)COc2ccc([N+](=O)[O-])cc2)cc1C,10.3,1.8%,4.3%,13.9%,5.2,3.7%,4.3
CC(=O)c1cccc(N(C(=O)c2cnccn2)C(C(=O)NCc2ccccc2)c2ccco2)c1 (stereo not given),-8.7,-3.9%,4.5%,5.9%,-13.1,14.9%,0.0
COc1ccc(C(=O)Nc2nc3cc(OC)c(OC)cc3c(=O)[nH]2)cc1,1.2,-12.3%,12.5%,4.7%,6.1,-5.0%,2.6
O=C(OCc1ccc(Cl)cc1)c1cnccn1,4.5,-0.3%,-2.8%,-0.1%,6.1,-5.4%,0.2
CCc1c(O)nc(SCC(=O)Nc2ccc3c(c2)CCC3)[nH]c1=O,7.7,-1.4%,2.8%,1.1%,-2.4,5.8%,10.6
CCCCN(N=Nc1nonc1OC)c1nonc1OC,6.6,2.9%,-0.6%,-45.0%[inhibitor],18.5,6.3%,0.8
CC(=O)N1C(=O)/C(=C2\SC(=S)N(c3c(C)n(C)n(-c4ccccc4)c3=O)C2=O)c2ccccc21,-6.4,-2.7%,7.0%,-0.7%,-5.2,-28.2%,-1.5
COC(=O)c1cc(-c2ccc(OC)cc2)on1,-16.1,·,-4.4%,-9.5%[15.4 µM],0.7,7.5%,4.3
COc1ccc(CCNC(=O)/C=C\c2ccccc2)cc1OC,-18.3,-3.4%,1.4%,26.9%,6.7,-0.5%,2.1
CCOc1ccccc1N(C(=O)CNS(=O)(=O)c1ccccc1)C(CC)C(=O)NCc1ccco1 (stereo not given),10.3,0.0%,-4.6%,-52.7%[inhibitor],7.1,-14.7%,1.6
O=C(CN1C(=O)NC2(CCCC2)C1=O)OCCOc1ccc(Br)cc1,6.1,-0.1%,12.9%,4.2%[15.4 µM],0.2,·,·
Cc1c(OCC(=O)N2C[C@H]3C[C@@H](C2)c2cccc(=O)n2C3)ccc2c3c(c(=O)oc12)CCC3,-9.5,4.5%,-2.1%,·,0.0,11.5%,-6.2
Cc1c(N=C2N=C(NC(=O)c3ccc(F)cc3)c3ccccc32)c(=O)n(-c2ccccc2)n1C,-17.2,·,-5.7%,-4.5%[15.4 µM],2.1,-15.6%,?
Cc1[nH]c2ccccc2c1CN1CCN(c2ccccn2)CC1,-7.1,·,10.3%,-2.2%[15.4 µM],-12.7,16.1%,0.9
CCN(C(=O)COC(=O)c1ccc(=O)n(Cc2ccccc2)n1)C1CCCCC1,10.9,1.8%,7.7%,29.4%,·,·,·
COc1ccc2cc(CN(CCCN3CCOCC3)Cc3nnnn3C3CCCC3)c(=O)[nH]c2c1,?,-1.0%,-4.2%,11.6%,9.3,?,0.0
CCN(C(=O)COC(=O)c1cccnc1)c1cccc2ccccc12,·,-1.8%,-1.2%,0.9%,·,·,·
CCN(CC)C(=O)C1CCN(S(=O)(=O)c2ccc(C3CNC(=O)C3)cc2)CC1 (stereo not given),18.6,1.6%,3.2%,-43.6%[inhibitor],3.9,10.3%,1.9
CSCCC(NC(=O)c1ccccc1)C(=O)N1CCN(C(=O)c2ccccc2)CC1 (stereo not given),·,0.8%,-3.4%,-160.4%[inhibitor],7.3,·,·
Cc1ccc(CNC(=O)c2coc(=O)c3ccccc23)o1,11.7,-3.5%,-5.5%,6.7%[15.4 µM],1.1,-77.3%,6.5
O=C(c1ccc(F)cc1)N1CCCC(N2CCN(Cc3ccc4c(c3)OCO4)CC2)C1 (stereo not given),11.1,-4.2%,0.1%,22.5%,-14.5,11.4%,·
O=C(c1ccccn1)N1N=C2/C(=C/c3ccccc3)CCCC2C1c1ccccc1 (stereo not given),-3.3,-3.0%,-29.3%,?,-3.9,-32.9%,6.2
CC(=O)c1c(C)[nH]c(C(=O)NCc2ccccn2)c1C,9.2,-1.7%,15.8%,21.9%,2.7,10.0%,1.6
Cc1cccc(S(=O)(=O)Nc2nc3ccccc3nc2NCc2ccc3c(c2)OCO3)c1,5.3,-17.5%,?,?,3.9,0.4%,-0.6
CC1CC(C)CN(C(=S)Nc2ccc(SC(F)F)cc2)C1 (stereo not given),-5.8,28.2µM*,-4.9%,5.7%,5.6,8.2%,-1.6
Cc1nnc(SCC(=O)Nc2cccc(S(=O)(=O)N3CCCC3)c2)n1C1CC1,·,-1.1%,·,-0.3%,2.5,·,·
COc1ccc(NC(=O)N2CCN(c3ccc([N+](=O)[O-])cc3)CC2)cc1,-1.9,·,-1.0%,-19.3%[15.4 µM],0.8,5.5%,-0.6
Cc1cc(OCC(=O)NCCO)ccc1Cl,0.9,-2.0%,3.8%,-1.1%,-0.9,2.9%,-0.1
Cc1ccc2c(c1)C(c1ccc(N3CCOCC3)cc1)=NNC(c1cccs1)=N2,-5.6,0.8%,-6.1%,?,-4.5,?,-2.6
CCOC(CNC(=O)c1ccc2c(c1)ncn2-c1ccc(F)c(F)c1)OCC,3.9,-2.2%,?,-2.2%,·,6.3%,0.4
O=C(CN1CCOC1=O)N1CCCC(N2CCN(c3cccc(C(F)(F)F)c3)CC2)C1 (stereo not given),6.2,-3.3%,-0.7%,-8.9%,·,10.1%,·
O=C1N=c2ccccc2=C1c1sc(=S)n(NC(=O)c2cccc(O)c2)c1O,18.7,2.9%,?,6.5%,?,-15.4%,-3.9
Cn1cccc1/C=N/NC(=O)CSc1nc2ccccc2n1C,21.1,0.4%,-12.7%,-12.3%[15.4 µM],2.1,4.9%,2.5
CCCN(CCC)C(=O)Cn1c(=O)n(CCCC(=O)NCc2ccco2)c(=O)c2sccc21,0.5,·,-1.6%,30.9%,1.9,11.7%,-1.3
Cc1nc(N2CCN(S(=O)(=O)c3ccc(Br)cc3)CC2)c2c(C)c(C)sc2n1,-1.2,·,-17.8%,14.8%,-4.8,4.2%,2.0
COC(=O)c1ncccc1SC,-10.1,1.9%,10.4%,-84.4%[inhibitor],·,5.4%,-1.2
CCc1cc2c(=O)c(-n3cnc4ccccc43)coc2cc1O,-4.8,-0.1%,-9.3%,-0.2%,0.8,5.0%,7.6
COc1cc(C(C)=O)ccc1Oc1ccc(S(=O)(=O)N2CCOCC2)cn1,-17.7,-6.5%,9.3%,1.2%,-8.3,·,·
O=S(=O)(c1ccc(Cl)cc1)N1CCn2c1nc1ccccc12,5.8,0.2%,5.1%,-50.1%[inhibitor],-3.8,-3.3%,-0.9
O=C(NCc1n[nH]c(=S)n1-c1ccc(Cl)c(Cl)c1)c1ccc(S(=O)(=O)N2CCCCC2)cc1,3.2,·,1.0%,-9.1%,-5.6,-3.3%,2.9
CCCCCCN1Cc2ccccc2C1,-5.4,0.9%,-4.7%,?,-1.6,-0.2%,3.6
COc1cccc(C(=O)N(C)Cc2c(C)nn(C3CCS(=O)(=O)C3)c2C)c1 (stereo not given),·,-1.8%,8.5%,16.6%,0.0,·,·
CCC1Nc2ncnc(N3CCOCC3)c2N(Cc2ccc(Cl)cc2)C1=O (stereo not given),·,-1.3%,4.2%,?,·,·,·
CC1CCN(c2c([N+](=O)[O-])nn(-c3ccc4c(c3)OCCO4)[n+]2[O-])CC1,-7.2,-0.5%,-5.2%,-6.5%,?,-6.0%,9.2
COC(=O)c1ccccc1S(=O)(=O)N1CCCC(c2nc3c(nnn3Cc3ccc(C)cc3)c(=O)[nH]2)C1 (stereo not given),22.4,-1.6%,-27.0%,19.9%[15.4 µM],16.4,-10.2%,0.6
CCCCn1c(N)c(N(CCC(C)C)C(=O)COC(=O)Cc2ccc(Cl)cc2)c(=O)[nH]c1=O,·,1.7%,5.7%,-14.5%,5.4,·,·
COc1cc(C(=O)NNC(=O)C2CSC3(C)CCC(=O)N23)cc(OC)c1OC (stereo not given),6.3,1.5%,6.9%,0.4%,·,·,·
Cc1c(C(=O)N(Cc2ccccc2)Cc2cccs2)cnn1-c1ccc(Cl)cc1,20.6,·,-6.7%,6.7%[15.4 µM],7.5,26.8%,-0.5
